# Screens deposited in PubChem by National Center for Advancing Translational Sciences (NCATS).
# gsp antagonist: gsp mutant antagonism; gsp-mutant cells, cAMP HTRF, 30 min; control for the full effect not named in the record; Potency, µM (top dose mostly 76.9 µM), inactives show top-dose activity change, negative = inhibition, actives largely listed as inhibitors; 0.4% of 340,000 active; active = falling curve of any shape with a large fitted effect; inconclusive = falling curve, mostly with a smaller effect; inactive = flat or rising curve; cell line not stated here;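 note: intracellular cAMP measured with PDE inhibitor Ro 20-1724 present during compound exposure; potency is the fitted concentration of half-maximal effect; % is set by controls: 0 for no effect and ±100 for the full control effect; nearly all actives have a fitted effect of over 65% in size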
#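 G418-selected cells were plated in DMEM/10% FBS for 16-24 h at 37C, then treated with compounds plus the PDE inhibitor […] (300 uM solution added) for 30 min at 37C. Intracellular cAMP was measured by HTRF after 30 min lysis at room temperature.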
# Sfp inh: inhibitors of Bacillus subtilis Sfp phosphopantetheinyl transferase | Biochemical Sfp PPTase activity, qHTS | Q9F4F7 | 3.5% of 310,000 active | AID 1490 | Potency, µM, without a hit: max response, negative = inhibition, usual class: inhibitors; active = well fitted inhibition curve with a large enough effect; inconclusive = small, poorly fitted or top-dose-only effect, or another doubt; inactive = no such curve, though single readings can be large or run the other way;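 note: the enzyme is Sfp with the accession as filed and its product quenches rhodamine fluorescence; potency is the fitted concentration of half-maximal effect; 0% = enzyme reaction without inhibitor and -100% = no enzyme wells; top concentration of the series not given in the record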
#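 Fluorescence-quenching assay: 15 nM Sfp-PPTase preincubated 15 min at room temperature with compound, then 5 uM rhodamine-CoA and 12.5 uM BHQ-2-labelled YbbR peptide added. Fluorescence (ex 525/em 598 nm) read at start and after 30 min; difference gives rate.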
# ClpP mod: qHTS Assay for Activators of ClpP. ATP-dependent Clp protease proteolytic subunit (Bacillus subtilis (strain 168)), P80244. Potency, µM (highest dose often 57.5 µM), inactives show at the top dose activity change, negative = active. AID 651965, 2013. purified B. subtilis ClpP, FRET peptide cleavage, 20 min. 1.9% of 340,000 active; active = well fitted falling curve with a large enough effect; inconclusive = small, poorly fitted or top-dose-only effect; inactive = no such curve, though single readings can be large or run the other way; note: potency is the fitted concentration of half-maximal effect; the source files actives as falling curves though it sought activators and does not explain the sign; nearly all actives have a fitted effect of over 65% in size; many hits overshoot -100%
# Target sequence (P80244 whole entry, looked up): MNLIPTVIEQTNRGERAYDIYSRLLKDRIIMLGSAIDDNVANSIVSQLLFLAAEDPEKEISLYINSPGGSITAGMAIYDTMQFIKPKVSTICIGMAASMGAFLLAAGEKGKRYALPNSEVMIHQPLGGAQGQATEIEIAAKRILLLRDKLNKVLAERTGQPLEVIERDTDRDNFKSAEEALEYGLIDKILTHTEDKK
#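 Purified B. subtilis ClpP, 10 microg/mL final in Tris/HCl pH8 with KCl, BSA, glycerol and Tween-20, cleaved an Abz/nitrotyrosine-quenched decapeptide. Fluorescence (ex 320, em 430) was read at 0 and 20 min at room temperature. Delta was normalized to 5.8 microM ADEP and DMSO/no-enzyme controls.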
# gsp ag: activates gsp, the McCune-Albright syndrome mutation | gsp mutant cells, cAMP HTRF, 30 min; control for the full effect not named in the record | Potency, µM (doses to about 76.9 µM), without a hit: at the highest dose activation (cAMP increase), most hits filed as activators | 0.13% of 340,000 active | AID 624287; active = well fitted activation curve with a large enough effect; inconclusive = small, poorly fitted or top-dose-only effect, or another doubt; inactive = no such curve, though single readings can be large or run the other way; cell line not stated here;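 note: phosphodiesterase inhibitor Ro 20-1724 added with compounds to block cAMP breakdown; potency is the fitted concentration of half-maximal effect; nearly all actives have a fitted effect of over 60% in size; about a fifth of the inactives were tested at one dose only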
#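 Cells stably selected in G418 were plated at 2000/well, grown 16-24 hr, then given compounds in DMSO with the PDE inhibitor […] (300 uM solution added) for 30 min at 37C; cAMP was read by HTRF.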
# TRPML1 blocker: inhibitors of human TRPML1 channel. Q9GZU1. TRPML1-inducible cells, Ca2+ dye fluorescence, FDSS; active compounds read low; inhibition of EC80 agonist-evoked calcium signal. activity change, negative = inhibition, % (concentration not given with the values). 0.02% of 390,000 active; in the data active means activity change below about -50%; inconclusive means about -30% to -50%; inactive means above about -30%;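 note: stimulus is agonist 54-4 at its EC80 concentration; % is set by controls: 0 for no effect and ±100 for the full control effect; the text of the record puts the active cut at -80%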
# Target sequence (Q9GZU1 whole entry, looked up): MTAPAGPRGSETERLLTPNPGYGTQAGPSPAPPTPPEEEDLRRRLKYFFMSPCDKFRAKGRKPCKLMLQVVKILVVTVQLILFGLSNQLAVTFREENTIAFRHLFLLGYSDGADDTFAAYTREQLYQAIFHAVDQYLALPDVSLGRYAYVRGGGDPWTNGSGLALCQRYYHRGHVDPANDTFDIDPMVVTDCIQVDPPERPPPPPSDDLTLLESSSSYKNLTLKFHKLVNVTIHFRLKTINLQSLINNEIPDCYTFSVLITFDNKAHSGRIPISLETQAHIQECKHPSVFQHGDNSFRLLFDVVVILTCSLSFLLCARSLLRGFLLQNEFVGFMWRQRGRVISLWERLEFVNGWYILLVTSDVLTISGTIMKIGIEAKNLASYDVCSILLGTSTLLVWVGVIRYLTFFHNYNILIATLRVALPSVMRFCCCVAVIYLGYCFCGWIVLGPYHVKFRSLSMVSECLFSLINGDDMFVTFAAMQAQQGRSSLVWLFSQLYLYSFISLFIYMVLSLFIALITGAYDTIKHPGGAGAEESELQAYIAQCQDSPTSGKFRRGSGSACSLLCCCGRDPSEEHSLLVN
#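 TRPML1-DL cells, Tet-induced overnight (~16 h, 37 °C) at 1,500 cells/well, were loaded with Ca8 no-wash dye plus quencher for 45-90 min at room temperature. Compounds were pinned during FDSS kinetic reading; agonist 54-4 at EC80 (4 uM final) then added.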
# TRPV1 potentiator: human TRPV1 potentiation; Q8NER1; TRPV1-expressing cells, Fluo-8 calcium influx, capsaicin EC20 potentiation; host cell line not named in the record; control for the full effect not named in the record; potentiation, % at 8.33 µM; 0.02% of 320,000 active; active means potentiation above 80%; inconclusive means 30% to 80%; inactive means below 30%; note: 0% is about no effect
#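 TRPV1-expressing cells were cultured overnight at 35.5C and loaded with Fluo-8 calcium dye for 40 to 90 min at room temperature. After a 10 s baseline, compound was added and calcium influx was read kinetically for 3 min (ex 480/em 520 nm).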
# Menin-MLL FL inh: inhibitors of human menin-MLL interaction, wild-type MLL peptide; Fluorescence polarization, fluorescein-MLL peptide displacement from menin; FP activity change, % at 61.4 µM; 290,000 tested, under 10 active; AID 1766; inconclusive = falling polarisation curve, or a change in total fluorescence; inactive = total fluorescence flat and polarisation flat or rising; no compound was filed as active; the % refers to the polarisation; negative = inhibition;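 note: % of control where 0% means no effect; inhibitors lower the polarisation; unlabelled MLL peptide was the positive control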
# Active calls of the source: *; ? = inconclusive; · = no result given; & = joins results of further samples; [ ] = another dose, or the depositor's remark.
SMILES,gsp antagonist,Sfp inh,ClpP mod,gsp ag,TRPML1 blocker,TRPV1 potentiator,Menin-MLL FL inh
Cc1cccc(C)c1NC(=O)CN(C)CC(=O)Nc1sc2c(c1C(N)=O)CCC2,?,·,·,1.4%[15.4 µM],7.5,5.5,·
CSc1ccc(CN(C)C(=O)c2ccc(S(=O)(=O)Nc3c(C)n(C)n(-c4ccccc4)c3=O)cc2)cc1,-15.5%,·,-1.0%,-36.8%[inhibitor],-1.4,·,·
Cc1cccc(NCC(=O)N/N=C/c2cccc(Br)c2)c1,-18.3%,-19.5%,4.2%,2.2%,5.7,-9.5,1.7
O=C(NNC(=O)C1CC(c2cccs2)=NO1)Nc1ccc(Cl)cc1 (centres undefined),12.8%,-5.2%,8.9%,17.0%,14.7,4.4,·
COc1ccc(N=CC2=C(O)c3ccccc3C2=O)cc1,18.3%,12.6%,-2.0%,-75.4%[inhibitor],-4.1,-11.4,1.9
O=C(CN1C(=O)NC2(CCCc3ccccc32)C1=O)N1CCCCC1 (centres undefined),7.6%,·,-2.6%,25.1%,-1.9,5.5,·
CSc1ccccc1NC(=O)N1CCC(CO)(CC2CCCCO2)CC1 (centres undefined),11.5%,7.6%,·,-10.0%[15.4 µM],-7.7,-0.8,1.5
CC(=O)c1cccc(OCc2cc(C(=O)N3CCSCC3)no2)c1,6.8%,-0.8%,-4.6%,-6.4%[15.4 µM],9.0,-5.8,·
Cc1cc(C)nc(/N=C(/NC(=O)Nc2cccc(Cl)c2)Nc2ccccc2)n1,-18.0%,-2.8%,-0.1%,-0.9%,2.0,8.6,0.5
CC1CCN(C(=O)CCCOc2ccc(Cl)cc2)CC1,3.7%,-1.9%,2.9%,?,6.9,-10.5,-0.6
CCCCC(=O)Nc1cccc(-c2nc3ncccc3o2)c1C,4.8%,0.5%,1.0%&4.2%,-1.3%[15.4 µM],-20.1&-8.4,-15.5,-5.7
CN(C)CCn1c(C(=O)Nc2ccccc2)cc2ccccc21,3.3%,11.6%,-1.0%,-28.4%,-16.2,-15.6,0.3
Cc1ccc(S(=O)(=O)N2CCN(C(=O)CN3C(=O)NC4(CCOc5ccccc54)C3=O)CC2)cc1 (centres undefined),-3.7%,1.7%,0.2%,7.4%,0.5,5.0,2.6
Cc1noc(C)c1C(=O)N1CCCC(C(=O)c2cccc(OC(C)C)c2)C1 (centres undefined),4.1%,22.5%,·,11.2%,5.8,-6.1,-6.2
O=S(=O)(Nc1cccc(S(=O)(=O)N2CCCCC2)c1)c1ccc(Cl)s1,-27.3%,·,2.2%,·,1.6,·,·
CC(NS(=O)(=O)/C=C/c1ccccc1)C(=O)O (centres undefined),8.7%,8.2%,·,-25.1%[15.4 µM],-5.5,5.1,2.0
Cc1ccc(Cn2c(SCCN3CCOCC3)nc3c2c(=O)n(C)c(=O)n3C)cc1,2.7%,8.9%,-9.0%,0.7%,17.4,-1.4,2.5
Cc1c(Br)c([N+](=O)[O-])nn1CC(=O)N1CCc2ccccc2C1,-11.3%,?,-1.1%,-60.2%[inhibitor],?,29.7,4.4
COc1cc(C(=O)NCC(=O)Nc2ccc(F)c(F)c2)ccc1OCC(=O)N1CCOCC1,2.5%,·,0.9%,-0.6%[15.4 µM],0.0,4.2,·
OC1(c2ccccc2F)CCN(Cc2nnnn2CCc2ccccc2)CC1,7.6%,11.9%,1.7%,-48.8%[inhibitor],1.8,-0.8,2.0
O=C(O)c1ccc(CN2CCCCC2)o1,3.4%,1.6%,-2.8%,8.5%,-0.4,5.9,-0.6
Clc1cc(Br)ccc1NCc1cccnc1,-1.3%,2.9%,-1.8%,4.8%,-5.8,-5.6,3.9
C/C(=N\NC(=O)c1cc(C2CC2)nc2ccccc12)c1ccc(O)cc1O,-15.4%,8.5%,-0.7%,-3.1%,-16.9,11.2,?
CCC(C)[C@H](NC(=O)NC1CCCc2ccccc21)C(=O)OC (some centres undefined),-13.5%,21.1%,-0.1%,-4.0%[15.4 µM],5.4,-7.7,2.0
O=C(CSc1nnc(-c2cccnc2)n1-c1ccc(F)cc1)NCc1ccc2c(c1)OCO2,5.2%,7.7%,1.3%,-13.1%,-2.2,4.3,1.8

# Following part:
SMILES,gsp antagonist,Sfp inh,ClpP mod,gsp ag,TRPML1 blocker,TRPV1 potentiator,Menin-MLL FL inh
Cc1cc(C)nc(SCC(=O)Oc2ccc3oc(=O)cc(C)c3c2)n1,0.5%,5.5%,3.3%,-16.2%,-4.6,-13.1,1.4
COC(=O)c1cccc(NC(=O)c2cnoc2C)c1,4.0%,-10.4%,-0.1%,-7.2%,1.8,-45.4,2.3
O=C1CC(N(Cc2ccc3c(c2)OCO3)C(=O)Nc2ccc(F)cc2)C(=O)N1c1ccccc1 (centres undefined),-9.8%,-10.7%,-1.4%,24.9%,-7.3,-2.1,3.6
Cc1cc(C)n(-c2nc(Nc3ccccc3C)nc(-n3nc(C)cc3C)n2)n1,·,3.9%,·,·,·,-20.7,0.4
O=C(O)c1ccc(OCC2CCCO2)cc1 (centres undefined),5.4%,3.9%,·,-2.6%,19.9,-21.7,-5.8
COc1cc(SC)ccc1C(=O)Nc1nc(C)cs1,?,17.0%,3.9%,1.3%,0.9,-5.3,-2.7
COC(=O)Nc1ccc(Cc2ccncc2)cc1,7.7%,18.7%,-2.9%,-2.3%,7.3,-13.3,-5.3
Cc1cccc(NC(=O)C2CC(=O)N(c3ccccc3)C2)c1C (centres undefined),6.8%,8.3%,-1.7%,-15.0%,8.7,-28.7,0.6
Cn1nc(C(=O)NCc2cccc(Cl)c2)c2c1-c1ccccc1S(=O)(=O)C2,-24.1%,2.6%,-2.9%&-5.2%,?,12.5&8.5,6.1,-4.9
O=C(CCN1C(=O)c2ccc(Br)cc2C1=O)NC1CCCCC1,-4.2%,6.4%,-1.0%,-19.3%,16.4,-3.0,·
Cc1cc(C)c2c(CN3CCN(Cc4ccc5c(c4)OCO5)CC3)cc(=O)oc2c1C,-0.6%,2.3%,-3.6%,-50.2%[inhibitor],3.1,2.2,2.1
CSc1nc(C)cc(OCNC(=O)c2cccs2)n1,10.1%,13.4%,0.9%,-15.6%,14.3,-7.7,-0.2
C=CCN(c1ccc(C(=O)NC(C)C)cc1)S(C)(=O)=O,11.9%,-4.7%,2.8%,1.7%,5.9,10.1,1.6
O=C(NC(=S)N1CCCCC1CO)c1cc(Br)ccc1Cl (centres undefined),7.8%,·,·,-1.2%[15.4 µM],17.5,8.5,·
CCc1[nH]c(=S)c(C#N)c(-c2ccccc2)c1C(=O)OC,-10.5%,-10.9%,-2.7%,17.2%,-8.0,-12.7,2.8
COc1ccc(Cn2ccnc2SCC(=O)Nc2ccccc2)cc1,-10.4%,8.1%,1.9%,-10.3%,-1.1,-13.4,·
CSc1nc(-c2ccc(Cl)cc2)c(C#N)c(=O)[nH]1,-13.7%,27.1%,·,4.4%[15.4 µM],-17.1,-2.5,-0.1
Cc1ccccc1OCCC(=O)OCC(=O)Nc1ccc2[nH]c(=O)[nH]c2c1,6.6%,·,31.6µM*,-27.0%,-8.5,-2.9,·
O=C(NC1CC1)C1CCN(C(=O)c2ccccc2Cl)CC1,11.9%,9.2%,·,-6.1%,-2.1,16.1,6.2
Cc1nc(-c2ccc(S(=O)(=O)Nc3cccc(S(N)(=O)=O)c3)s2)cs1,-9.2%,-6.7%,-0.8%,11.9%[15.4 µM],-10.0,21.8,-0.9
Nc1nnc(CCc2ccccc2)s1,5.6%,5.0%,-0.6%,-2.9%,2.1,27.2,3.5
C=CCN1C(=O)CSc2ccc(C(=O)NC3CCCCC3)cc21,-19.2%,3.4%,-0.7%,?,58.7,-15.7,·
O=[N+]([O-])c1ccc2c(c1)ncn2-c1ccccc1,-10.3%,-6.1%,-6.4%,?,0.3,-10.0,2.9
CCN(CC)c1ccc(NC(=O)CCNC(=O)c2ccco2)cc1,-5.1%,3.2%,·,4.0%[15.4 µM],-6.9,1.6,7.9
CCC(C(=O)Nc1cccnc1Cl)c1ccccc1 (centres undefined),3.1%,12.4%,-1.2%,-2.8%,-5.6,-16.1,-3.4

# Continuation.
SMILES,gsp antagonist,Sfp inh,ClpP mod,gsp ag,TRPML1 blocker,TRPV1 potentiator,Menin-MLL FL inh
COC(=O)[C@@H]1C[C@@]2(O)[C@@H](O)[C@@H](O)[C@@H](O)C[C@H]2N1Cc1ccc(-c2ccccc2)cc1,11.0%,5.1%&10.5%,-0.2%,·,4.1,-28.4,1.3&-0.9
Cc1nccn1-c1ccc(C=O)cc1,-0.8%,27.8%,0.8%,20.0%,-8.1,12.8,4.0
O=C(COC(=O)c1ccc([N+](=O)[O-])s1)Nc1ccc(Cl)cn1,5.4%,-15.4%,-2.0%,23.4%,-0.9,4.2,9.0
O=C(c1cc2cc(Br)ccc2oc1=O)N1CCN(c2ccccn2)CC1,3.3%,7.2%,-3.1%,2.9%,-18.5,4.2,-1.7
Cc1ccccc1NC(=O)CN1CCN(C)CC1,0.7%,?,-0.9%,11.7%[15.4 µM],77.1,?,?
C=CCn1c(C)cc(C(=O)CSc2nc3ccccc3[nH]2)c1C,?,-0.3%,0.7%,0.1%,-7.4,-12.7,5.7
N#Cc1cnc(Sc2ccccc2)nc1,14.6%,9.1%,-0.6%,-0.1%[15.4 µM],28.6,0.3,-1.3
NS(=O)(=O)c1ccc(N=Nc2c(O)c(C(=O)O)cc3ccccc23)cc1,-12.6%,?,-3.9%,11.9%,-6.0,13.7,7.4
COc1ccccc1Nc1nnc(SCC(=O)Nc2cc(C)on2)s1,3.8%,4.6%,0.0%,7.8%,2.0,10.4,4.0
Cc1ccc(C(=O)C(C)OC(=O)CCN2C(=O)C3C4C=CC(C5CC45)C3C2=O)cc1 (centres undefined),5.2%,4.8%,-0.3%,?,-18.6,2.1,·
O=C(CCNC(=O)c1ccccc1)NNC(=O)COc1ccccc1Cl,8.1%,·,·,13.2%,9.7,·,·
CCc1cc(C(=O)NNC(=S)Nc2ccccc2C)cs1,-9.8%,-9.8%,6.1%,-1.6%,-6.4,22.4,-0.1
CSCC[C@H](NC(=O)Cc1c(C)c2c(cc(C)c3c(C)coc32)oc1=O)C(=O)O,-2.9%,5.9%,·,27.3%,5.7,21.4,-1.0
Cc1ccc(S(=O)(=O)N2CCN(c3nn(C)c(=O)n(C)c3=O)CC2)cc1C,-9.0%,·,-8.9%,?,8.9,18.5,·
